Prx2 Sm inh: blocks S. mansoni peroxiredoxin 2 enzymatic activity; Potency, µM; S. mansoni Prx2 activity coupled to TGR/GSH (TGR is thioredoxin glutathione reductase), NADPH fluorescence loss, qHTS; some inactives read as strong as hits; 65,000 tested, 0.07% active; active means full or partial inhibition curve with a strong effect at the top dose; inconclusive means weaker partial or single-point curve; inactive means no accepted curve; note: series up to 57 µM; many of its hits are not listed in these tables
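Coupled assay in which S. mansoni TGR passes NADPH reducing equivalents via glutathione to Prx2, which reduces H2O2. Compounds were preincubated 15 min at room temperature with 25 nM TGR/50 nM Prx2 mix. Kinetic NADPH fluorescence loss (ex 365/em 450 nm) was monitored.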
LT uptake inh: inhibitors of anthrax lethal toxin internalization. Cells, anthrax lethal toxin internalization, FRET ratio (460/530). Potency, µM (doses to about 40 µM), inactives show top-dose activity change, negative = inhibition, hits mostly inhibitors. 70,000 tested, 0.67% active. AID 912; active = well fitted falling ratio curve with the 530 nm signal flat; inconclusive = other ratio curves, or a change in one channel alone; inactive = flat curves in the ratio and both channels; the % refers to the ratio; note: % is set by controls: 0 for no effect and ±100 for the full control effect; nearly all actives have a fitted effect of over 50% in size; tested in ME-180 cells; beta-lactamase reporter
Starred values were filed as active, the others as inactive; u = inconclusive; x = not tested or not shown; & = joins results of further samples; [ ] = dose if it differs, or a comment. Potency is the fitted concentration of half-maximal effect.

Order of values: Prx2 Sm inh, LT uptake inh
- CCCc1[nH]nc2c1C(CCC)C(C#N)=C(N)O2 (centres undefined)
→ >57, -2%
- CC1CCC2(CC1)NC(=O)c1ccccc1O2 (centres undefined)
→ >57, -2%
- O=C(NCCCN1CCCC1=O)c1ccc2c(=O)n(Cc3ccco3)c(=S)[nH]c2c1
→ >57, 1%
- Nc1ccc(CCS(N)(=O)=O)cc1
→ >57, -9%
- CCCCN(C)S(=O)(=O)c1ccc(C(=O)Nc2nnc(-c3cccs3)o2)cc1
→ >57, -4%
- CCOCCCN(C(=O)CNC(=O)c1ccco1)C(C(=O)NC1CCCC1)c1ccccc1C (centres undefined)
→ >57, u
- CS(=O)(=O)N(CC(=O)NC1CC2CCC1C2)c1cccc(C(F)(F)F)c1 (centres undefined)
→ >57, -2%
- CS(=O)(=O)N1CCC[C@@]2(CCN(Cc3nccs3)C2)C1
→ >57, 11%
- COc1cccc(-n2nnc3c(=O)n(CC(=O)OCc4ccccc4)cnc32)c1
→ >57, u
- O=C(NC[C@@H](O)CO)c1c(I)c(C(=O)NC[C@@H](O)CO)c(I)c(N(CCO)C(=O)CO)c1I
→ >57, 4%[3.58 µM]
- CCOc1ccc(C2CC(c3cccc(C)c3)n3ncnc3N2)cc1 (centres undefined)
→ >57, -13%
- Cc1cc(NC(=O)c2cc(-c3ccco3)on2)no1
→ >57, -7%
- Cc1cc2n(n1)C(c1ccccc1Cl)Nc1ccccc1-2 (centres undefined)
→ >57, -14%
- CCC(C)SCc1nc2ccccc2[nH]1 (centres undefined)
→ x, 5%
- CCOC(=O)Nc1cccc(OCC(=O)Nc2ccccc2OC)c1
→ >57, 0%
- Cc1cnc(CNc2ncnc3ccc(-c4ccccc4C#N)cc23)cn1
→ >57, 4%
- Cc1ccc2cc(CN(CCN3CCCC3)C(=O)Nc3ccccc3)c(=O)[nH]c2c1C
→ >57, -4%
- CCc1nnc(NC(=O)c2nc3nccc(C)n3n2)s1
→ >57, -4%
- COc1ccc(-c2nc3cnc(N(C)C)nc3n(CCC#N)c2=O)cc1
→ >57, u
- O=C(O)C1=CCCN(CCOC(c2ccc(C(F)(F)F)cc2)c2ccc(C(F)(F)F)cc2)C1
→ >57, u
- Clc1ccc(Cl)c(SCCCN2CCNCC2)c1
→ >57, u
- O=C1Nc2ccccc2C(O)(C(=O)NC2CC2)N1c1ccc(Cl)c(Cl)c1 (centres undefined)
→ >57, u
- CCOC(=O)N1CCC(Nc2ncnc3c2cnn3-c2ccccc2)CC1
→ >57, -8%
- CCOC(=O)c1cnn(-c2sc(C(=O)OCC)c(C)c2C(=O)OCC)c1N
→ >57, -4%
- COc1cc2c(cc1O)CCN[C@H]2C
→ >57, u
- CCOc1ccc(NC(=O)c2ccncc2)cc1
→ >57, -17%
- CCOC(=O)C1CCN(CC(=O)c2c(C)[nH]c3cc(C)ccc23)CC1
→ >57, u
- CC(C)C(=O)Nc1nnc(Cc2ccccc2)s1
→ >57, -15%
- CCn1cc(SCC(=O)NCc2ccc3c(c2)OCO3)c2ccccc21
→ >57, 6%
- Cc1ccc(CNC(=O)CN(C)S(=O)(=O)c2cccc3nsnc23)cc1
→ >57, -6%

Looked up by structure from the list above, 2 records:
Order of values: Prx2 Sm inh, LT uptake inh
- CCCCN(C)S(=O)(=O)c1ccc(C(=O)Nc2nnc(-c3cccs3)o2)cc1
→ >57, -4%
- CS(=O)(=O)N1CCC[C@@]2(CCN(Cc3nccs3)C2)C1
→ >57, 11%

(more compounds)
Order of values: Prx2 Sm inh, LT uptake inh
- COC(=O)c1cnc2c(C(F)(F)F)cccc2c1OC
→ >57, -3%
- CC(C)(C)NC(=O)CSc1nc(O)cc(=O)n1-c1ccccc1F
→ >57, 9%
- O=C(NC1CCCCC1)N(Cc1nc2ccccc2c(=O)[nH]1)C1CCCC1
→ >57, 18%
- Cc1[nH]c(=O)c(C#N)cc1-c1ccncc1
→ >57&>57&>57, -12%
- CC(=O)n1cc(Nc2ccccc2C(=O)O)c2ccccc21
→ >57, -16%
- CCCCOC(=O)Nc1ccc(OC)cc1S(=O)(=O)N1CCOCC1
→ >57, 10%
- Cc1ccccc1-n1c(=O)c2ccccc2n2nnnc12
→ >57, 2%
- CCS(=O)(=O)NCCc1ccc(OC)c(OC)c1
→ >57, -5%
- COc1ccccc1N1CC(C(=O)OC(C)C(=O)N2CCCc3ccccc32)CC1=O (centres undefined)
→ >57, 2%
- C[C@@H]1[C@H](O)[C@@H](C)/C=C/C=C/C=C/C=C/C=C/C=C/C=C/[C@H](O[C@@H]2O[C@H](C)[C@@H](O)[C@H](N)[C@@H]2O)C[C@@H]2O[C@](O)(C[C@@H](O)C[C@@H](O)[C@H](O)CC[C@@H](O)C[C@@H](O)CC(=O)O[C@H]1C)C[C@H](O)[C@H]2C(=O)O
→ x, 12%
- O=C(NCc1ccc2c(c1)OCO2)c1ccc(S(=O)(=O)NCC2CCCO2)cc1 (centres undefined)
→ >57, 2%
- Cn1cc(C(=O)NC2CCCCCC2)c(=O)c2cc(S(=O)(=O)N3CCCC3)ccc21
→ >57, -1%
- Cc1oc(-c2ccccc2)[n+]([O-])c1C
→ >57, x
- CCC(=O)N1CCN(c2ccccc2NC(=O)Cc2ccc(Cl)cc2)CC1
→ >57, u
- CCS(=O)(=O)N1CCC(C(=O)NCc2ccccn2)CC1
→ >57, 10%
- Cc1ccc(-c2ccc(SCC(=O)Nc3nonc3C)nn2)cc1
→ >57, -8%
- CCOC(=O)C1CCCN(c2c(N3CCC(N4CCCCC4)CC3)c(=O)c2=O)C1 (centres undefined)
→ >57, -22%
- Cc1ccc(Nc2cc(C)nc3ncnn23)c(Cl)c1
→ >57, -11%
- COC(=O)N1CCC2(CCCN(Cc3ccc(C#N)cc3)C2)CC1
→ >57, 7%
- Cc1cc(C)c2c(c1)-c1cc(C)nn1C(c1ccc3c(c1)OCO3)N2 (centres undefined)
→ >57, 2%
- O=C(CSc1ccc2nnc(-c3ccncc3)n2n1)Nc1ccc2c(c1)OCO2
→ >57, 6%
- CCOc1cc(CC(=O)N[C@@H](CC(C)C)c2ccccc2N2CCCCC2)ccc1C(=O)O
→ >57, -4%[3.58 µM]
- Cc1ccc(S(=O)(=O)NC(CC(=O)N2CCc3ccccc32)c2ccco2)cc1 (centres undefined)
→ >57, -1%
- Cc1nc2ncccn2c1-c1csc(NCc2ccco2)n1
→ >57, 19%
- O=C(CCNc1ccccc1)c1ccc2c(c1)OCO2
→ >57, -4%
- CCCC(=O)Nc1ccc(NC(=O)c2ccccn2)cn1
→ >57, -11%
- O=S(=O)(c1ccc(Cl)c(Cl)c1)N1CCc2nc3ccccc3n2CC1
→ >57, u
- O=C(CSc1nc(-c2ccco2)cc(C(F)(F)F)n1)Nc1cccnc1
→ >57, -10%
- O=C(Nc1ccc(-c2nc3ncccc3o2)cc1)c1ccco1
→ >57, u
- COc1c(N2CCNC(C)C2)c(F)cc2c(=O)c(C(=O)O)cn(C3CC3)c12 (centres undefined)
→ >57, -10%

Next part; it opens with the four that closed the last part.
Order of values: Prx2 Sm inh, LT uptake inh
- O=S(=O)(c1ccc(Cl)c(Cl)c1)N1CCc2nc3ccccc3n2CC1
→ >57, u
- O=C(CSc1nc(-c2ccco2)cc(C(F)(F)F)n1)Nc1cccnc1
→ >57, -10%
- O=C(Nc1ccc(-c2nc3ncccc3o2)cc1)c1ccco1
→ >57, u
- COc1c(N2CCNC(C)C2)c(F)cc2c(=O)c(C(=O)O)cn(C3CC3)c12 (centres undefined)
→ >57, -10%
- Cn1c2c(c(=O)n(C)c1=O)C(c1cccc(Br)c1)C1C(=O)c3ccccc3C1=N2 (centres undefined)
→ >57, -12%
- CCOC(=O)Cc1csc(NC(NC(=O)CC)(C(F)(F)F)C(F)(F)F)n1
→ >57, -1%
- COc1ccc2cc3cc(C(=O)NCCc4ccc(OC)c(OC)c4)oc3nc2c1
→ >57, 13µM*
- COC1CCCCC1Nc1cccc(SC)c1 (centres undefined)
→ x, -22%
- CCOC(=O)NC1(C(F)(F)F)C(=O)N(Cc2ccccn2)C2=C1C(=O)CC(C)(C)C2 (centres undefined)
→ >57, u
- O=C(c1cccs1)N1CCC(c2nc3c(nnn3Cc3ccccc3)c(=O)[nH]2)CC1
→ >57, -3%
- CCOC(=O)c1nc(S(C)(=O)=O)ncc1Cl
→ >57, u
- O=S(=O)(Cc1ccccc1Cl)N1CCN(Cc2ccc3c(c2)OCO3)CC1
→ >57, -27%
- COc1ccc(NC(=O)c2ccco2)cc1NC(=O)c1ccco1
→ >57, -14%
- CC(C(=O)NC1CCCCCC1)N(c1ccccc1)S(C)(=O)=O (centres undefined)
→ u, -8%
- O=C(Nc1ccccc1)NC1CC2CCC(C1)N2 (centres undefined)
→ >57, -18%
- COc1cc(NC(=O)C(C)Oc2ccccc2)cc(OC)c1 (centres undefined)
→ >57, -6%
- COc1ccc(CC(=O)OCC(=O)NC(=O)NC2CCCCC2)cc1
→ >57, -3%
- COc1ccc(-n2c3c(cc(C(=O)N4CCN(CCO)CC4)c2=O)C(=O)CC(C)(C)C3)cc1
→ >57, -7%
- COc1ccc(OC)c(C(=O)COC(=O)CNC(=O)C2CCCCC2)c1
→ >57, 2%
- O=C(OCC(=O)N1CCc2ccccc21)c1ccc[n+]([O-])c1
→ >57, -3%
- CS(=O)(=O)N(CC(=O)N1CCCCCC1)c1ccc(Br)cc1
→ >57, u
- Cc1nn(C)c(C)c1CNC(=O)c1cnn2c1NC(c1ccccc1)CC2C(F)(F)F (centres undefined)
→ >57, -3%
- CCOC(=O)N1CCN(C(=O)c2cnc(Nc3ccccc3OC)c3ccccc23)CC1
→ >57, -12%
- Clc1ccc(CSCc2ccc(Cl)cc2Cl)c(Cl)c1
→ >57, -29%[8 µM]
- CC(C)(C)NC(=O)C(c1ccncc1)N(Cc1cccs1)C(=O)Cn1nnc(-c2cccs2)n1 (centres undefined)
→ >57, u
- COc1ccc(NC(=O)Nc2cccc3cccnc23)cc1
→ >57, u
- CCN(CC)CCCCCOc1ccccc1OC
→ x, 6%
- COc1ccc(C2C=C(c3ccccc3)Nc3nnnn32)cc1 (centres undefined)
→ x, -6%
- Cc1cc(C)n(CNc2nc(C(F)(F)F)cs2)n1
→ >57, 5%
- CCCn1c(C)nc2c(N3CCN(C)CC3)nc(C)nc21
→ x, -3%
- N#Cc1ccccc1-c1ccc2ncnc(NC3CC3)c2c1
→ >57, -12%
- CCOc1ccc(C(=O)OCc2nnc(-c3cccs3)o2)cc1OC
→ >57, 0%
- Cc1cc(NC(=O)Nc2cccs2)no1
→ >57, 0%
- CCOc1ccc(N2CC(C(=O)OC)CC2=O)cc1 (centres undefined)
→ >57, u

More structures follow.
structure | Prx2 Sm inh | LT uptake inh
Cc1c(NC(=O)C(C)OC(=O)C(NC(=O)c2ccco2)C(C)C)c(=O)n(-c2ccccc2)n1C (centres undefined) | >57 | 10%
CCN(CC)C(=O)CSc1nc2ncc(Br)cc2[nH]1 | >57 | -1%
O=C(NCc1ccc2c(c1)OCO2)c1nnc(Cc2ccc(F)cc2)o1 | >57 | -2%
COC(=O)Cc1c(C)nc2nc[nH]n2c1=O | >57 | -6%
COc1cccc(CNn2cnnc2)c1OCc1ccccc1F | >57 | 5%
Cc1ccc(S(=O)(=O)NC2CCOC(C)(C)C2)cc1 (centres undefined) | >57 | -4%
Cc1ccc(S(=O)(=O)Nc2ccccc2CNc2c(C)n(C)n(-c3ccccc3)c2=O)cc1 | >57 | -13%
Cc1ccc(N(CC(=O)NCc2ccco2)S(=O)(=O)c2ccccc2)cc1 | >57 | -13%
O=c1c(CCc2ccccc2)nc2cnc(Oc3ccccc3)nc2n1C1CC1 | >57 | -19%
COc1ccc(C(=O)CSc2nnc(-c3cccnc3)n2Cc2ccco2)cc1 | >57 | -9%
Cc1nc(CNS(=O)(=O)c2ccccc2F)cs1 | >57 | u
COC(=O)c1ccc(Cn2nc(C)c(Br)c2C)cc1 | >57 | -21%
O=C(NCc1ccco1)c1cccc(S(=O)(=O)N2CCOCC2)c1 | >57 | 9%
C#CCCCO/N=C1/C[C@@H](O)[C@@H](O)[C@@H]2[C@@H]3C(=O)N(C4CCCCC4)C(=O)[C@H]3CC[C@H]12 | x | -1%[8 µM]
O=C1CCc2cc(S(=O)(=O)NC(C(=O)NCc3cccnc3)c3ccccc3)ccc2N1 (centres undefined) | >57 | 1%
CCn1cc(C(=O)N2CCCCC2)c(=O)c2cc(S(=O)(=O)N3CCC(C)CC3)ccc21 | >57 | u
O=S(=O)(c1ccc(Br)s1)N1CCCCC1 | >57 | -15%
CCn1c2ccccc2c2nnc(SCC(=O)NC(CC(C)C)C(=O)OC)nc21 (centres undefined) | >57 | -7%
O=C1c2ccccc2NC(c2cccc(F)c2)N1Cc1ccco1 (centres undefined) | >57 | -11%
CCc1nn(CC(=O)NCCCN(CC)Cc2ccccc2)c(=O)c2cc3sccc3n12 | >57 | u
COc1cc2c(cc1O)[C@@H](c1cc(O)c(O)c(OC)c1)[C@@](O)(C(=O)O)[C@@H](CO)[C@@H]2O | >57 | u
O=C(Cc1ccccc1)N1CCCC(c2nc(-c3cccs3)no2)C1 (centres undefined) | >57 | -7%
Cc1nn(C)c(C)c1N=Cc1c(O)ccc2ccccc12 | >57 | -2%
C=C(Cl)COC(=O)[C@H]1C2C=CC(C2)C1C(=O)O (some centres undefined) | >57 | x

Only part of the results is shown; the hit share may differ from the screen's.
